# From PubChem BioAssay
# Ecoli rRNA inh: reduced GFP signal of wild-type E. coli, primary screen, bacterial rRNA inhibitor project, GFP/RFP fluorescence, OD600, single point; actives 1.6% (n = 350,000); AID 720706, 2013; GFP signal change (wild-type ribosome), % (no concentration beside the values); E. coli WT GFP vs humanized-ribosome RFP mutants, 24 h; hits give low values; DMSO median 0, no signal -100;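 active means significant combined selectivity score with lowered wild-type GFP, culture density cut under 30%, mutant RFP and density less affected; inactive means any of these conditions unmet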; further: one replicate is shown; some compounds called inactive have numbers as strong as hits
# Ecoli rRNA inh OD600: second read-out of Ecoli rRNA inh, no call of its own (marks repeat the call); OD600 change, %; measured here: OD600 growth;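 optical density of the mix in the first replicate; 0 = DMSO median and -100 = no signal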
# Ecoli rRNA inh RFP: second read-out of Ecoli rRNA inh, no call of its own (marks repeat the call); RFP signal change, %; measured here: RFP humanized mutant strains;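 first replicate; 0 = DMSO median and -100 = no signal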
# The depositor's hits bear a star; & = joins results of further samples. Not all compounds are listed, so the mix of outcomes need not match the whole.
# Preview:
SMILES,Ecoli rRNA inh,Ecoli rRNA inh OD600,Ecoli rRNA inh RFP
C[C@@H]1CN([C@@H](C)CO)C(=O)c2cc(NS(=O)(=O)c3cccs3)ccc2O[C@@H](C)CCCCO[C@@H]1CN(C)C(=O)c1ccncc1,0,-5,-1.9
COc1ccc(-c2ccc([C@H]3[C@@H](CO)N4C(=O)CNC[C@H]34)cc2)cc1,-2,6,-1.4

# The listing, repeating the preview:
SMILES,Ecoli rRNA inh,Ecoli rRNA inh OD600,Ecoli rRNA inh RFP
C[C@@H]1CN([C@@H](C)CO)C(=O)c2cc(NS(=O)(=O)c3cccs3)ccc2O[C@@H](C)CCCCO[C@@H]1CN(C)C(=O)c1ccncc1,0,-5,-1.9
COc1ccc(-c2ccc([C@H]3[C@@H](CO)N4C(=O)CNC[C@H]34)cc2)cc1,-2,6,-1.4
CC(=O)Nc1cccc(-c2ccnc3c2CC(C(=O)NCc2cccc(Cl)c2)O3)c1 (stereo unspecified),-4,-4,-3.1
C[C@@H]1CN([C@H](C)CO)C(=O)Cc2cc(NC(=O)Cc3cn(C)c4ccccc34)ccc2O[C@@H]1CN(C)S(=O)(=O)c1cccs1,-1,-1,3.8
COCC(=O)NC[C@H]1N[C@H](CO)[C@@H]1c1ccc(C#CC2CCCCC2)cc1,0,-3,7.5
O=C(C[C@H]1C[C@H]2c3cc(NC(=O)NC4CCCCC4)ccc3O[C@H]2[C@H](CO)O1)NC1CCCC1,5,11,0.5
CCC(=O)Nc1ccc2c(c1)C(=O)N(C)C[C@H](OC)[C@H](C)CN(C(=O)CC1CC1)[C@H](C)CO2,3,0,-0.9
CCCC(=O)Nc1ccc2c(c1)OC[C@H](C)N(CC1CCOCC1)C[C@@H](C)[C@H](OC)CN(C)C2=O,-4,4,-0.4
C[C@@H]1CCCCO[C@@H](CN(C)C)[C@H](C)CN([C@@H](C)CO)C(=O)c2cc(NS(=O)(=O)c3ccccc3)ccc2O1,3,4,-1.5
Cc1noc(C)c1S(=O)(=O)Nc1ccc2c(c1)C(=O)N([C@@H](C)CO)C[C@@H](C)[C@H](CN(C)Cc1ccc(C(F)(F)F)cc1)OCCCC[C@H](C)O2,-4,-17,7.8
COc1ccc(CN(C)C[C@H]2Oc3ccc(NC(=O)Cc4ccccc4)cc3CC(=O)N([C@@H](C)CO)C[C@@H]2C)cc1,-2,1,-1.9
COc1ccc(NC(=O)Nc2ccc3c(c2)CC(=O)N([C@H](C)CO)C[C@@H](C)[C@H](CN(C)S(=O)(=O)c2ccccc2)O3)cc1,2,2,-0.2
CN1C(=O)c2cc(NC(=O)c3cccc(F)c3)ccc2OC[C@@H]2O[C@H](CC(=O)NCc3ccccc3Cl)CC[C@H]21,-7,-8,3.7
O=C(C[C@H]1CC[C@H]2[C@@H](COC[C@H](O)CN2C(=O)Nc2ccc(F)cc2)O1)NCCc1ccccc1,-6,-9,-2.8
Cc1cccc(C)c1OCc1nnc(SCC(=O)O)n1-c1c(C)cccc1C,-13,-26,-6.4
COc1ccc(NC(=O)N(C)C[C@@H]2Oc3ccc(NC(=O)c4ccncc4)cc3CC(=O)N([C@@H](C)CO)C[C@@H]2C)cc1,4,8,1.0
C[C@H]1CN([C@@H](C)CO)C(=O)c2cc(C#CC3CC3)cnc2O[C@H]1CN(C)C(=O)Cc1ccccn1,7,16,1.7
O=C(Nc1ccc2c(c1)CN(C(=O)Nc1ccc(F)cc1)CC2)c1ccccn1,-21,-47,0.5
O=C1N[C@H](Cc2ccccc2)COCc2cn(nn2)CC[C@H]1Cc1ccccc1,5,5,-2.1
COCC(=O)Nc1ccc2c(c1)[C@H]1C[C@@H](CC(=O)NCc3cccc(F)c3)O[C@@H](CO)[C@H]1O2,4,6,-2.0
COc1ccc(NC(=O)N(C)C[C@@H]2Oc3ccc(NC(=O)Nc4ccc(C(F)(F)F)cc4)cc3CC(=O)N([C@@H](C)CO)C[C@H]2C)cc1,-6,-7,6.5
C[C@H]1CN([C@@H](C)CO)C(=O)Cc2cc(NC(=O)c3ccncc3)ccc2O[C@@H]1CN(C)Cc1ccncc1,1,3,-1.1
O=C(CC(F)(F)F)N1C[C@@H]2[C@H](c3ccccc31)[C@@H](CO)N2Cc1cccnc1,3,5,1.4
C[C@@H]1CN([C@@H](C)CO)C(=O)CCCn2nncc2CO[C@@H]1CN(C)Cc1ccc2c(c1)OCO2,1,4,1.0
CC(=O)Nc1cccc(-c2ccnc3c2CC(C(=O)Nc2cccc(NS(C)(=O)=O)c2)O3)c1 (stereo unspecified),-16,-15,7.4
COc1ccc([C@@H]2C[C@H]3[C@@H](CN2S(=O)(=O)c2ccccc2)C(=O)C[C@@H](c2ccccc2F)N3S(=O)(=O)c2ccc(C)cc2)cc1,15,19,1.5
O=C(c1ccccc1)N1CC2(C1)[C@H](c1ccccc1)[C@@H](CO)N2Cc1ccccn1,-1,10,-0.8
CCN(CCN(C)C)C(=O)c1ccc2nc(C)c(N(C)C(=O)CCc3ccccc3)n2c1,6,1,-2.9
COc1cccc(S(=O)(=O)N2CCCCN3[C@H](CO)[C@H](c4ccc(-c5cccnc5)cc4)[C@@H]3C2)c1,-19,-34,-0.2
Cc1noc(C)c1NC(=O)Nc1ccc2c(c1)C(=O)N([C@H](C)CO)C[C@@H](C)[C@@H](CN(C)Cc1ccc(C(=O)Nc3ccccc3N)cc1)O2,0,5,-1.2
O=C(C[C@H]1C=C[C@H](NC(=O)Cc2ccccn2)[C@H](CO)O1)NCCCN1CCOCC1,1,6,-1.4
O=C1NC[C@H](CCCCN2C[C@H](Cc3ccc(O)cc3)N(CCc3ccccc3)C(=O)C2=O)N(CCc2ccc(O)cc2)C1=O,15,16,4.5
O=C(C[C@@H]1CC[C@H](NC(=O)c2ccccc2)[C@@H](CO)O1)NCc1ccncn1,0,2,-0.6
CC1(c2nnnn2Cc2ccccc2)CCC(=O)N1Cc1cccc(C(F)(F)F)c1 (stereo unspecified),-5,-7,-3.4
CCCNC(=O)N1CC2(CN(S(=O)(=O)c3cccc(OC)c3)C2)c2c(n(C)c3cc(OC)ccc23)[C@H]1CO,-6,-5,3.8
C[C@@H]1CN([C@@H](C)CO)C(=O)c2cc(NS(C)(=O)=O)ccc2O[C@@H](C)CCCCO[C@@H]1CN(C)Cc1ccncc1,1,7,-1.7
C[C@@H]1CN([C@H](C)CO)S(=O)(=O)c2ccc(C#CC3CC3)cc2O[C@H]1CN(C)Cc1ccccc1F,6,15,-2.8
CN1[C@@H]2c3ccc(-c4ccccc4)c(=O)n3C[C@H]1[C@H](CO)[C@H]2C(=O)NCCCN1CCOCC1,3,1,0.7
COc1cccc(NC(=O)N(C)C[C@@H]2OCc3cn(nn3)CCCC(=O)N([C@H](C)CO)C[C@@H]2C)c1,-1,-1,1.3
C[C@@H]1CN([C@H](C)CO)C(=O)c2cc(Br)cnc2O[C@@H]1CN(C)Cc1ccccc1,7,20,-1.9
C[C@@H]1CN([C@H](C)CO)C(=O)c2cccc(NC(=O)NC3CCCCC3)c2O[C@H]1CN(C)C(=O)NC1CCCCC1,-7,-13,0.8
O=C(CS(=O)(=O)Cc1ccccc1)c1ccccc1,3,9,5.0
C/C=C/c1ccc([C@H]2[C@@H](CO)N(C(=O)CC)[C@@H]2CNC(=O)CC)cc1,-1,-4,0.0
CC(C)NC(=O)N[C@@H]1C=C[C@@H](CC(=O)N2CCCCC2)O[C@H]1CO,-1,10,-1.3
C[C@@H]1CCCCO[C@@H](CN(C)Cc2ccc(C(=O)O)cc2)[C@H](C)CN([C@@H](C)CO)C(=O)c2cc(NS(=O)(=O)c3cccs3)ccc2O1,2,3,-2.7
Cc1noc(C)c1S(=O)(=O)Nc1ccc2c(c1)CC(=O)N([C@@H](C)CO)C[C@H](C)[C@@H](CN(C)C(=O)Nc1ccc(F)cc1)O2,8,4,-1.1
COCc1cn(CC[C@@H]2CC[C@H](NC(=O)c3ccccc3)[C@H](CO)O2)nn1,1,5,-2.7
C[C@H](O)C#Cc1ccc2c(c1)O[C@H](CN(C)C(=O)C1CCCCC1)[C@H](C)CN([C@@H](C)CO)S2(=O)=O,-5,0,-5.3
COc1ccc(NC(=O)N(C)C[C@H]2Oc3c(NS(C)(=O)=O)cccc3C(=O)N([C@H](C)CO)C[C@H]2C)cc1,3,9,1.1
CO[C@H]1CN(C)C(=O)c2cc(NS(=O)(=O)c3ccccc3Cl)ccc2OC[C@H](C)NC[C@@H]1C,2,1,-0.1
COC(=O)/C=C1\OCc2cccc(C)c21,3,0,-3.7
CO[C@H]1CC[C@@H]2CCN(C)C(=O)[C@H](C)[C@@H](OC)CN(C)C(=O)c3cccc(C#N)c3OC[C@@H]1O2,0,-1,0.8
O=C(c1cccnc1)N1C[C@H]2[C@@H](c3ccccc31)[C@H](CO)N2C(=O)C1CCOCC1,5,7,-2.9
O=C(NCc1ccccc1)[C@H]1CCCN1C(=O)[C@H]1CCCN1C(=O)N1CCCCC1,9,16,-0.3
CS(=O)(=O)N1[C@@H]2CNC[C@H]1C2c1ccc(-c2ccccc2)cc1 (stereo partly specified),7&2,6&6,1.4&-2.1
C[C@H](O)C#Cc1ccc2c(c1)O[C@H](CN(C)C(=O)Nc1ccccc1)[C@H](C)CN([C@@H](C)CO)S2(=O)=O,-2,-2,-1.5
CN1c2ccc(-c3cccc(F)c3)cc2[C@H]2[C@H](CCN2C(=O)Cc2cccnc2)[C@@H]1CO,-6,-4,3.4
CCCNC(=O)Nc1ccc2c(c1)C(=O)N(C)[C@@H]1CC[C@@H](CC(=O)NCC3CCCCC3)O[C@@H]1CO2,-5,-10,1.9
CN1C(=O)c2cc(NC(=O)Cc3cccs3)ccc2OC[C@@H]2O[C@H](CC(=O)NCC3CC3)CC[C@H]21,6,13,-0.8
COc1ccc(S(=O)(=O)N(C)C[C@H]2OCCCC[C@@H](C)Oc3ccc(NS(=O)(=O)c4c(C)noc4C)cc3C(=O)N([C@H](C)CO)C[C@@H]2C)cc1,2,-3,0.4
# Additional records:
SMILES,Ecoli rRNA inh,Ecoli rRNA inh OD600,Ecoli rRNA inh RFP
C[C@@H]1CN([C@H](C)CO)C(=O)c2cc(NC(=O)Cn3cnnn3)ccc2O[C@@H]1CN(C)C(=O)Nc1ccc(F)cc1,-6,-2,-0.6
FC(F)(F)c1ccccc1Cc1c(-c2ccc(Cl)cc2)nc2ccc(Br)cn12,-14,-21,-1.1
O=C(Nc1ccc(F)cc1)N[C@@H]1CC[C@H](CCn2cc(C3(O)CCCC3)nn2)O[C@@H]1CO,2,4,2.6
COc1cc2c(cc1OC(C)=O)C(=O)CCCC2,16,10,0.0
O=C(C[C@@H]1CC[C@@H](NC(=O)C2CCC2)[C@H](CO)O1)NC1CCCCC1,-1,-3,0.3
CCC(=O)Nc1ccc2c(c1)C(=O)N(C)C[C@H](OC)[C@@H](C)CN(Cc1ccncc1)[C@@H](C)CO2,1,-2,-2.0
CC=Cc1ccc2n(c1=O)C[C@@H]1[C@@H](CO)[C@H](C(=O)NCC3CC3)N(CC3CCOCC3)[C@H]21 (mixture of isomers),2,7,-3.2
CN1[C@H](C(=O)NCC(F)(F)F)[C@@H](CO)[C@@H]2Cn3c(ccc(-c4ccccc4F)c3=O)[C@@H]21,0,5,-2.9
CCC(=O)Nc1ccc2c(c1)C(=O)N(C)C[C@H](OC)[C@@H](C)CN(C(=O)NC(C)C)[C@H](C)CO2,5,8,0.9
CO[C@H]1CN(C)C(=O)c2ccc(NC(=O)C3CCOCC3)cc2OC[C@@H](C)N(CC2CC2)C[C@@H]1C,0,0,-3.2
C[C@@H]1CN([C@H](C)CO)C(=O)c2cc(NS(=O)(=O)c3ccccc3)ccc2O[C@H]1CN(C)Cc1ccc(Oc2ccccc2)cc1,0,-18,5.8
C[C@@H]1CN([C@@H](C)CO)C(=O)c2cc(NC(=O)Nc3ccccc3)ccc2O[C@@H]1CN(C)S(=O)(=O)c1ccc(Cl)cc1,-1,-2,1.3
CCCNC(=O)C[C@H]1CC[C@H]2[C@@H](COC[C@@H](O)CN2C(=O)Nc2ccc(Cl)c(Cl)c2)O1,-58,-74,-13

# Quoted from above for reference:
SMILES,Ecoli rRNA inh,Ecoli rRNA inh OD600,Ecoli rRNA inh RFP
C[C@@H]1CN([C@H](C)CO)C(=O)c2cc(NC(=O)Cn3cnnn3)ccc2O[C@@H]1CN(C)C(=O)Nc1ccc(F)cc1,-6,-2,-0.6
FC(F)(F)c1ccccc1Cc1c(-c2ccc(Cl)cc2)nc2ccc(Br)cn12,-14,-21,-1.1
O=C(Nc1ccc(F)cc1)N[C@@H]1CC[C@H](CCn2cc(C3(O)CCCC3)nn2)O[C@@H]1CO,2,4,2.6
COc1cc2c(cc1OC(C)=O)C(=O)CCCC2,16,10,0.0
O=C(C[C@@H]1CC[C@@H](NC(=O)C2CCC2)[C@H](CO)O1)NC1CCCCC1,-1,-3,0.3
CCC(=O)Nc1ccc2c(c1)C(=O)N(C)C[C@H](OC)[C@@H](C)CN(Cc1ccncc1)[C@@H](C)CO2,1,-2,-2.0
CC=Cc1ccc2n(c1=O)C[C@@H]1[C@@H](CO)[C@H](C(=O)NCC3CC3)N(CC3CCOCC3)[C@H]21 (mixture of isomers),2,7,-3.2
CN1[C@H](C(=O)NCC(F)(F)F)[C@@H](CO)[C@@H]2Cn3c(ccc(-c4ccccc4F)c3=O)[C@@H]21,0,5,-2.9
CCC(=O)Nc1ccc2c(c1)C(=O)N(C)C[C@H](OC)[C@@H](C)CN(C(=O)NC(C)C)[C@H](C)CO2,5,8,0.9
CO[C@H]1CN(C)C(=O)c2ccc(NC(=O)C3CCOCC3)cc2OC[C@@H](C)N(CC2CC2)C[C@@H]1C,0,0,-3.2
C[C@@H]1CN([C@H](C)CO)C(=O)c2cc(NS(=O)(=O)c3ccccc3)ccc2O[C@H]1CN(C)Cc1ccc(Oc2ccccc2)cc1,0,-18,5.8
